# KCNQ2 enhance: potentiators of rat KCNQ2 potassium channel; CHO-K1 KCNQ2, FluxOR thallium flux fluorescence; active compounds read high; O88943; 0.54% of 310,000 active; B-score at 10 µM;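 active = fluorescence ratio B-score at least 3 SD of library B-scores, with initial fluorescence B-score within 3 SD, cut at about 5.3 in these data; same plate scores as AID 2156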;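 also: B-score of peak minus minimum over baseline fluorescence ratio after K+ and Tl+ stimulus; positive B-score means potentiation of KCNQ2 with more thallium influx and brighter signal; only the inactives scoring about 0 or higher are listed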
# Target sequence (O88943 whole entry, looked up): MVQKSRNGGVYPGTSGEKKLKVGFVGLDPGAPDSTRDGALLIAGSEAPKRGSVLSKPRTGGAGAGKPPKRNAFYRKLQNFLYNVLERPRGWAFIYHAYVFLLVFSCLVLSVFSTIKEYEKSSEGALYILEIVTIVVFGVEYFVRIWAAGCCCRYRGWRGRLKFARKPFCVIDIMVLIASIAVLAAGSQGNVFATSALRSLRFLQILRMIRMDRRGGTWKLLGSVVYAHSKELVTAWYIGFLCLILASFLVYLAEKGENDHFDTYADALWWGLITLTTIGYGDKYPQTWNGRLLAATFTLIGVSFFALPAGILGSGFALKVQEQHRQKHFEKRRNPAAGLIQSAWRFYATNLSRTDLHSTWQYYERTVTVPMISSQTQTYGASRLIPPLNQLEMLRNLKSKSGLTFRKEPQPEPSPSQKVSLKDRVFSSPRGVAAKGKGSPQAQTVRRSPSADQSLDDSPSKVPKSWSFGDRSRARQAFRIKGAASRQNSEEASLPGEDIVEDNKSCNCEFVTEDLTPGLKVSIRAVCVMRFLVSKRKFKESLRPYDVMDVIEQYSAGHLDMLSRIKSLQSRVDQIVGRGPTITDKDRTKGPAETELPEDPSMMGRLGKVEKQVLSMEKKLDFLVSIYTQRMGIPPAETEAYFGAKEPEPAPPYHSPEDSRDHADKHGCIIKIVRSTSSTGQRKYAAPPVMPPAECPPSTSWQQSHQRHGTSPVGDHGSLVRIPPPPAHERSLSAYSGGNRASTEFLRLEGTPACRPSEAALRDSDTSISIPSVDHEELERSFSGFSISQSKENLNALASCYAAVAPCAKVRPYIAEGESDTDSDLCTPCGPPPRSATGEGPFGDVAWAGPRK
# KCNQ2 enhance baseline: also measured in KCNQ2 enhance; calls as there; B-score; compound at 10 µM; measured here: initial fluorescence intensity artifact check;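 brightness before thallium and not channel activity; 0 = typical well and far values either way flag optical interference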
# * marks the source's active call; other numbers are inactive results.
cpd	Structure	KCNQ2 enhance	KCNQ2 enhance baseline
1	Cc1n[nH]c(C)c1CCNCc1ccc(OCC(O)CN2CCCCC2)cc1 (centres undefined)	0.07	-0.35
2	CCOC(=O)c1ccc(CNC(=O)C2CCCCC2C(=O)OCC(F)(F)F)o1 (centres undefined)	1.1	-0.9
3	NNC(=O)Cn1nc(-c2ccccc2)c2ccccc2c1=O	0.58	-1.3
4	NC(=NCCc1c[nH]c2ccccc12)NS(=O)(=O)c1ccc(F)cc1	0.95	-0.69
5	Cc1occc1C(=O)Nc1c(F)cc(F)cc1Br	1	2.2
6	CCn1c(=O)c([N+](=O)[O-])c(N2CCOCC2)c2ccccc21	2.5	-0.09
7	COc1ccc(-n2c(CCc3ccccc3)nnc2SCC(=O)c2ccc(Cl)cc2)cc1	0.02	-1.4
8	COc1ccc(CCC(=O)N(C)CC(=O)Nc2ccc(Cl)c(C(F)(F)F)c2)cc1	1.6	1.2
9	CC(C)(C)NS(=O)(=O)c1ccc(OCC(=O)NCc2ccco2)cc1	0.33	1.6
10	Cc1c(OC(C)C(=O)NCCCN2CCCC2=O)ccc2c3c(c(=O)oc12)CCCC3 (centres undefined)	0.74	-0.05
11	O=C(NNC(=O)c1cc(-c2ccncc2)nc2ccccc12)c1cccc(Cl)c1	0.14	-0.14
12	O=C1N[C@@H](Cc2ccccc2)C(=O)N2CCC[C@@H]12	0.09	2.3
13	Cc1ccc(SCC(=O)n2nc(C)cc2C)cc1	0.15	1.4
14	O=C(COc1ccccc1C(=O)Nc1ccccc1)c1ccc(F)cc1	1.9	0.04
15	C=CCOc1ccc(C2=NOC(C(=O)Nc3ccc4c(c3)OCCO4)C2)cc1OC (centres undefined)	1.4	-0.66

# Part of the list above, set out differently.
# Every second line gives: KCNQ2 enhance	KCNQ2 enhance baseline
6: CCn1c(=O)c([N+](=O)[O-])c(N2CCOCC2)c2ccccc21
    2.5	-0.09
7: COc1ccc(-n2c(CCc3ccccc3)nnc2SCC(=O)c2ccc(Cl)cc2)cc1
    0.02	-1.4
8: COc1ccc(CCC(=O)N(C)CC(=O)Nc2ccc(Cl)c(C(F)(F)F)c2)cc1
    1.6	1.2
9: CC(C)(C)NS(=O)(=O)c1ccc(OCC(=O)NCc2ccco2)cc1
    0.33	1.6
10: Cc1c(OC(C)C(=O)NCCCN2CCCC2=O)ccc2c3c(c(=O)oc12)CCCC3 (centres undefined)
    0.74	-0.05
11: O=C(NNC(=O)c1cc(-c2ccncc2)nc2ccccc12)c1cccc(Cl)c1
    0.14	-0.14
12: O=C1N[C@@H](Cc2ccccc2)C(=O)N2CCC[C@@H]12
    0.09	2.3

# Back to the main list, repeating the two entries before the break.
cpd	Structure	KCNQ2 enhance	KCNQ2 enhance baseline
14	O=C(COc1ccccc1C(=O)Nc1ccccc1)c1ccc(F)cc1	1.9	0.04
15	C=CCOc1ccc(C2=NOC(C(=O)Nc3ccc4c(c3)OCCO4)C2)cc1OC (centres undefined)	1.4	-0.66
16	O=C(CSc1oc(-c2ccc(F)cc2)nc1S(=O)(=O)c1ccccc1)NCC1CCCO1 (centres undefined)	0.62	0.42
17	O=C1[C@@H]2CSCN2C(=O)CN1Cc1cccc(C(F)(F)F)c1	0.15	-0.04
18	COC(=O)c1sc(NC(=O)c2ccco2)nc1C	0.18	0.39
19	O=c1c2ccccc2n2cnnc2n1-c1ccccc1	0.45	-1.4
20	COC(=O)CCCC1=CC2=CC(=O)C(C)(OC(=O)c3cccs3)C(=O)C2=CN1Cc1ccccc1 (centres undefined)	0.58	1.1
21	COc1cc(S(=O)(=O)Nc2ccc(Br)cc2)ccc1N	0.09	-1.4
22	C=CCNc1nc(Cl)ncc1F	0.04	1.4
23	CCOC(=O)N1CCC2(CC1)C(C#N)=C(N)OC1=C2C(=O)CC(C)C1 (centres undefined)	0.15	-0.76
24	Cc1ccc(-n2c(Cc3cccs3)nnc2SCC(=O)OC(C)C)cc1	0.38	-0.52
25	CCOP(=O)(OCC)C(NC(=O)Nc1ccccc1)C(N)=O (centres undefined)	0.41	1.9
26	CC1CN(Cc2c(O)ccc3c2oc(=O)c2ccccc23)CC(C)O1 (centres undefined)	2	2.7
27	CCNC(=O)N1CCCC(C(=O)c2ccc(OC)c(OC)c2)C1 (centres undefined)	0.75	-0.11
28	Cc1cc(C)c(NC(=S)N(Cc2cccnc2)Cc2ccco2)c(C)c1	0.43	-0.47
29	Nc1ccc(C2(c3ccc(N)cc3)C(=O)Nc3ccccc32)cc1	0.79	-0.46
30	O=c1c2c([nH]c3ccccc13)CCCCC2	0.49	-0.96
31	COc1ccc(-c2csc(NC(=O)CSc3n[nH]c(N)n3)n2)cc1	0.93	-2
32	CCC(C)n1nccc1NC(=O)C(C)OC(=O)c1cc2ccccc2[nH]1 (centres undefined)	1.5	0.37
33	COc1cccc(N=Nc2c(N)[nH]n3c(=O)cc(-c4ccccc4)nc23)c1	5.9*	-5*
34	CCN(CC)CC(O)COc1ccc2c(c1)OCO2 (centres undefined)	1.3	0.34
35	CN(CC(N)=O)S(=O)(=O)c1ccc(F)cc1	0.95	-0.12
36	COC(=O)c1ccc(NC(=O)[C@H](C)NC(N)=O)cc1	0.22	-1.9
37	CCC(CC)c1nnc(NC(=O)C2CCN(C(=O)c3ccco3)CC2)s1	0.14	0.35
38	CCCC(C(=O)NC1CCCC1)N(C(=O)c1snc(C(N)=O)c1N)c1ccc(OCC)cc1 (centres undefined)	0.26	-0.53
39	COCCNC(=O)/C(C#N)=C/c1c(N2CCN(c3ccc(OC)cc3)CC2)nc2c(C)cccn2c1=O	0.8	-1.9
40	Cc1ccc(/C=N/OC(=O)c2c(C)noc2-c2snnc2C)cc1	1.3	-0.47
41	Cc1cc(C)c2ccc3c(C)c(C)n(C)c3c2n1	0.09	-0.56
42	Cc1ccnc(NC(=O)C(C)n2cc([N+](=O)[O-])cn2)c1 (centres undefined)	1.3	1.8
43	Cc1cc(=O)n2nc(N3CCC(C(=O)NCc4ccccc4F)CC3)sc2n1	0.31	1.4
44	COc1ccc(Nc2cc(Nc3ccc(OC)cc3)ncn2)cc1	0.55	-1.7
45	COC(=O)[C@@]12CCCN1[C@H](c1ccc(-c3cccc(Cl)c3)c(OC)c1)[C@H]1C(=O)N(C)C(=O)[C@H]12	0.43	0.28
46	CCCN1CCN(CC(=O)Nc2nnc(CC)s2)CC1	0.19	0.15
47	COc1ccc(-n2c(=O)c3ccccc3n(CC(=O)NC3CCCC3)c2=O)cc1	0.29	-0.07
48	Cc1cc(=O)[nH]c(SCC(=O)Nc2ccc(F)c([N+](=O)[O-])c2)n1	0.06	0.01
49	CCN(CC1CCCN(CCc2cccc(OC)c2)C1)C(=O)c1ccoc1C (centres undefined)	0.13	0.68
50	Cc1oc2cc([N+](=O)[O-])c(O)c([N+](=O)[O-])c2c1C(=O)c1ccc(Cl)cc1	7.9*	-1.9*
51	CCOC(=O)C(NC(C)=O)(Nc1ccc(S(=O)(=O)Nc2ccncn2)cc1)C(F)(F)F (centres undefined)	0.22	0.06
52	COc1ccc(C(=O)NC2CCN(C(=S)NCc3ccco3)CC2)cc1	0.48	-0.53
53	Cc1cccc(-n2c(C)n[nH]c2=S)c1C	0.32	-0.36
54	Cc1ccc2cc(C=O)c(Cl)nc2c1	3.1	0.54
55	C=CCN1C(=O)C(CC(=O)Nc2ccc(OCC)cc2)N(Cc2ccccn2)C1=S (centres undefined)	1.6	-1.6
56	COc1cccc(-n2c(SC)nnc2-c2cnccn2)c1	0.6	0.82
57	COc1ccc(/C=N/n2cnc3c(sc(=S)n3-c3ccccc3)c2=O)cc1	0.01	0
58	CC1(C)Cc2nc3sc4c(N5CCCC5)nnnc4c3cc2CO1	1.4	-0.5
59	C=CCn1c(CCNC(=O)c2cccs2)nnc1SCC(=O)Nc1cccc(F)c1	1.7	0.17
60	COc1cccc(C2=CC(c3cc(OC)ccc3OC)n3nnnc3N2)c1 (centres undefined)	0.13	-0.01
61	Cc1nn(CC(=O)OCC(=O)NC(C)c2ccccc2)c(C)c1[N+](=O)[O-] (centres undefined)	0.5	-0.01
62	CC1CC(=O)Nc2ccccc2N1S(=O)(=O)c1ccc(Cl)cc1 (centres undefined)	0.93	-0.67
63	COc1ccc(OC)c(C2=NO[C@@](CC(=O)O)(C(=O)Nc3ccc4c(c3)OCCO4)C2)c1	0.68	-0.16
64	Cc1ccccc1NC(=O)c1ccccc1	1.2	0.17
65	CC1CC(C)CN(C(=O)c2ccc(NC(=O)c3ccc(=O)[nH]c3)cc2)C1 (centres undefined)	1	0.47
66	Cc1csc(SCC(=O)NC(C)c2ccc(F)cc2)n1 (centres undefined)	0.01	-1.6
67	Cc1noc(C)c1COC(=O)c1cccnc1SCC(=O)Nc1ccc2c(c1)OCO2	0.39	0.08
68	Cc1cccc(NC(=O)C2CCN(S(=O)(=O)c3cccc4nsnc34)CC2)c1	1.1	0.99
69	O=C(O)C(F)(F)S(=O)(=O)O	0.45	-0.05
70	Cn1c(=O)c2c(nc(Sc3ccccc3N)n2C)n(C)c1=O	1.8	-1.4
71	CC1=NN(C2=NS(=O)(=O)c3ccccc32)C(C)(O)C1 (centres undefined)	2.6	0.22
72	Cn1c(SCC(=O)Nc2ccc(Cl)cc2)nc(O)cc1=O	0.51	-1.7
73	COc1cc(/C=N/NC(=O)CCn2nnc3ccccc32)ccc1O	1.2	1.6
74	CN1CCN(c2oc(-c3ccccc3)nc2S(=O)(=O)c2ccc(Br)cc2)CC1	0.11	0.83
75	O=C(CNS(=O)(=O)/C=C/c1ccccc1)OC1CCOC1=O (centres undefined)	1.2	0.83

# Remaining list, next part.
cpd	Structure	KCNQ2 enhance	KCNQ2 enhance baseline
76	CCOc1ccc(S(=O)(=O)N(CC)CC(=O)N2CCCC2)cc1	0.29	2.1
77	Cc1nc(N)c2c(Cc3cccc4ccccc34)nn(C(C)(C)C)c2n1	0.38	1.2
78	CC(C)N(C)CCOC(=O)/C=C/c1ccccc1	0.92	0.35
79	CCOC(=O)c1ccccc1NC(=O)COC(=O)CCCOc1ccccc1	0.27	1.1
80	COc1ccc(NC(=S)NC(=O)C2CCCCC2)cc1	0.35	-0.06
81	CCC(=O)c1ccc(-c2ccccc2)cc1	0.01	0.08
82	COc1ccc(N2CCN(C(=O)COC(=O)c3cccc(S(=O)(=O)Nc4ccccc4OC)c3)CC2)cc1	0.27	1.1
83	O=C(CCCNc1ccccc1)N/N=C/c1cccs1	0.61	-0.79
84	O=C(NCc1cccnc1)c1cccnc1-c1nc2ccccc2s1	0.14	0.43
85	C=CCn1c(=S)[nH]c2sc3c(c2c1=O)CCC3	2.5	0.79
86	CN(CCC#N)C(=S)Nc1ccc(F)cc1	1.2	0.84
87	CCN1CCN(C(=O)CN(C)S(=O)(=O)c2ccc(OC)c(C)c2)CC1	2.3	2.9
88	N#CCc1c(C#N)c(N)nc(N2CCCC(O)C2)c1C#N (centres undefined)	0.68	0.48
89	COCCCn1c(=O)cc(C)[nH]c1=S	2.1	0.66
90	O=C(Cc1ccc(Cl)cc1)N1CCOCC1	1.5	-0.29
91	Cc1ccc(NC(=O)CNCC2CCCCC2)cc1S(=O)(=O)N(C)C	0.19	-0.87
92	CN(C)S(=O)(=O)Nc1ccc(Oc2ccccc2)cc1	0.77	0.64
93	CC1Cc2ccccc2N1S(=O)(=O)c1ccc2c(c1)n(C)c(=O)c(=O)n2C (centres undefined)	0.24	0.76
94	CCOc1ncccc1C(=O)OCC(=O)Nc1ccc(C(N)=O)cc1	1.6	0.06
95	COc1ccc(CCNC(=O)Cn2nnc(-c3ccc(OC)c(OC)c3)n2)cc1OC	0.17	-2.2
96	COC(=O)CSc1cc(SCC(=O)OC)c(C#N)c(SCC(=O)OC)c1	1.4	0.72
97	Cc1occc1-c1nnc(SCC(=O)Nc2nccs2)n1Cc1ccco1	0.82	0.18
98	COc1cccc(C(=O)N2CCC(CCC(=O)Nc3cccc(C)c3)CC2)c1	0.55	-0.91
99	CC(C)(C)OC(=O)NCCC(=O)N/N=C/c1cccc2nccnc12	0.66	-1.1
100	COc1ccc(-c2nc3cnccn3c2NC(C)(C)CC(C)(C)C)cc1O	1.1	0.22
101	N#C/C(=N/Nc1ccccc1[N+](=O)[O-])C(N)=S	2.3	-0.46
102	CC(C)CN(C(=O)C1CCCCC1)C1CCS(=O)(=O)C1 (centres undefined)	0.13	2.5
103	Cc1cccc(Oc2ccccc2NC(=O)c2cnccn2)c1	0.81	0.02
104	COc1ccc(/C=C2\SC(=S)N(CCCC(=O)Nc3ccccn3)C2=O)cc1OC	0.76	-0.41
105	CCOc1cc(N2CCOCC2)c(OCC)cc1NC(=O)Cn1[nH]c(=O)c2ccccc2c1=O	0.41	0.72
106	CCc1ccc(N2CC(C(=O)NNC(=O)c3ccc(F)cc3)CC2=O)cc1 (centres undefined)	0.16	2.2
107	CN(C(=O)Nc1ccc(Cl)cc1)c1c2c(nn1C)CCCC2	1.7	-1.1
108	Cc1cc(C)n(-c2ccc(C(=O)OCC(=O)N(CC(C)C)C3CCS(=O)(=O)C3)cc2)n1 (centres undefined)	1.5	-0.82
109	COC(=O)c1cccnc1SCc1ccccc1	0.27	0.02
110	O=C(COc1nncc2ccccc12)NCC(F)(F)F	1.5	-1
111	CC1CC(C)CN(S(=O)(=O)c2ccc(NC(=O)CN3C(=O)NC(C)(c4ccccc4)C3=O)cc2)C1 (centres undefined)	1.2	0.08
112	FC(F)Oc1ccc(NC(=S)N2CCc3ccccc32)cc1	1.6	-0.7
113	O=C(CCCCCN1C(=O)c2cccc3cccc(c23)C1=O)N1CCOCC1	1.1	-1.2
114	CCCNC(=O)CCNC(=O)c1ccc(C(C)(C)C)cc1	0.31	-0.71
115	O=C(NC12CC3CC(CC(C3)C1)C2)N1CCN(c2ncccn2)CC1	0.06	0.41
116	CC1=Nc2cccc3cccc(c23)N1C	0.67	0.89
117	CCCCS(=O)CC(CS(=O)CCCC)OC(=O)c1ccc(C)cc1 (centres undefined)	0.08	-0.65
118	CCCOc1ccc(C2C(=O)N(C3CCCCC3)CC(=O)N2CCC)cc1OC (centres undefined)	0.58	0.23

# A portion of the library; the hit share may differ from the screen's.
